Screens as filed in PubChem.
HSD17B inhib = HSD17B dehydrogenase inhibition | Q99714 | recombinant HSD17B10, NADH fluorescence kinetic; many of its hits are not listed in these tables | Potency, µM (top dose mostly 57.1 µM), inactives show top-dose activity change, negative = inhibition, hits mostly inhibitors | hit rate 7.6% among 75,000 | AID 893; active = well fitted inhibition curve with a large enough effect; inconclusive = small, poorly fitted or top-dose-only effect; inactive = no such curve, though single readings can be large or run the other way;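 also: the protocol describes HADH2 (HSD17B10) and not the HSD17B4 of the title; nearly all actives have a fitted effect of over 70% in size; most hits overshoot -100% by far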
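Activity followed as NADH fluorescence increase (ex 360, em 450 nm) every 30 seconds for 4 min, using final 90 uM beta-hydroxybutyryl CoA and 1 mM NAD+. Recombinant His-tagged enzyme, 20 nM, pH 9.0 Tris buffer, 15 min compound preincubation.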
* = called active by the depositor; ? = inconclusive; & = joins results of further samples; [ ] = remark or other dose. % is scaled to controls: 0 for no effect and ±100 for the full control effect; potency is read from the fitted curve at half-maximal effect. These rows are one share of the data, so the mix of outcomes need not match the whole.

SMILES	HSD17B inhib
COc1ccc(C2OC3C(CO)OC(n4cnc5c(=O)[nH]c(N)nc54)C3O2)cc1 (stereo unspecified)	5%
CCS(=O)(=O)N1CCC(NC(=O)c2ccco2)CC1	-6%
Cc1ncc[nH]1	6%
Nc1ccc([N+](=O)[O-])cc1O	0%
Oc1c(CN2CCN(c3ccccc3)CC2)cc(Br)c2cccnc12	-1%[11.4 µM]
Cc1ccc(-c2cc(C(=O)Nc3c(C)n(C)n(-c4ccccc4)c3=O)[nH]n2)c(O)c1	-1%
CC(C)N1C(=O)CCC1C(=O)N1CCN(c2ccccn2)CC1 (stereo unspecified)	?
CCOC(=O)C1=C(N)OC2=C(C(=O)CCC2)C1c1ccco1 (stereo unspecified)	2%
CN(CC(=O)O)S(=O)(=O)c1cccs1	6%
CCc1ccccc1OCCCCN1CCCC1	-4%
C=CCn1c(-c2c[nH]c3ccccc23)n[nH]c1=S	-9%
N#Cc1ccc(CN2CC3(CCN(C(=O)c4cnccn4)CC3)C2)cc1	5%
CCC12C=C(/C=C/c3ccccc3)C(CC)(C1)C(c1ccccc1)CC2=O (stereo unspecified)	2%[11.4 µM]
O=C(CCCOc1ccccc1)N1CCc2ccccc2C1	?
NCc1ccc(C(=O)O)cc1	5%[11.4 µM]
CCOC(=O)N1CCN(C(=O)c2ccc(N3CCCC3=O)cc2)CC1	7%
O=C(CSC1=NCCS1)N1CCCC1	6%
COc1ccc(CCNC(=O)c2oc3ccc(S(=O)(=O)N4CCOCC4)cc3c2C)cc1OC	?
COC(=O)[C@@]1(Cc2ccc(F)cc2)[C@H]2c3cc(C(=O)N4CCCC4)n(Cc4ccc(Cl)c(C(F)(F)F)c4)c3C[C@H]2CN1C(=O)c1ccccc1	43%[activator]
Cc1ccc(-c2ccc(=O)n(CC(=O)NCCN3C(C)CCCC3C)n2)cc1 (stereo unspecified)	32µM*
COc1ccccc1CNC(=O)CCCNS(=O)(=O)c1cccc2nsnc12	10%
Cc1ccccc1-n1nc(-c2ccc(N)cc2)cc1N	2%
CC[C@H]1C2=C3C(CC[C@H]4C(OC)OC[C@](C)([C@@H]34)N(C(=O)OC(C)(C)C)C2)C(CO)C1CO (stereo partly specified)	17%
c1ccc(CCNc2ncnc3c2nnn3Cc2ccccc2)cc1	-7%
CCc1cc2c(N3CCCCC3)ncnc2s1	-10%

Brought forward from above: 5 entries; new compounds follow.
SMILES	HSD17B inhib
COc1ccccc1CNC(=O)CCCNS(=O)(=O)c1cccc2nsnc12	10%
Cc1ccccc1-n1nc(-c2ccc(N)cc2)cc1N	2%
CC[C@H]1C2=C3C(CC[C@H]4C(OC)OC[C@](C)([C@@H]34)N(C(=O)OC(C)(C)C)C2)C(CO)C1CO (stereo partly specified)	17%
c1ccc(CCNc2ncnc3c2nnn3Cc2ccccc2)cc1	-7%
CCc1cc2c(N3CCCCC3)ncnc2s1	-10%
O=C(NC1CCCCC1)C1CCN(c2cnccn2)CC1	-6%
CCOC(=O)CSc1nnc(-c2ccc(OC)cc2)n1CC	2%
O=C(c1ccco1)N1CCN(Cc2cccc(F)c2)CC1	4%
COc1ccccc1C(=O)Nc1nnn(C)n1	-2%
c1cncc(-c2cncnc2NCc2cccs2)c1	5%
CC12CCC(C(=O)NC3CCCC3)(CC1=O)C2(C)C (stereo unspecified)	3%
COc1ccc(OC)c(-c2csc3nnc(SCC(=O)Nc4ccc(NC(C)=O)cc4)n23)c1	1%
COc1cccc(NC(=O)N2CCCC2C(=O)NC2CC2)c1 (stereo unspecified)	5%
CC(C)CN1CC[C@@]2(CCCN(C(=O)c3cnccn3)C2)C1	-1%
COc1ccc(C2N=C(c3ccccc3)C(C)(C)N2O)cc1OC (stereo unspecified)	-4%
O=C(c1cccc2cccc(O)c12)N1CCCCC1	-17%
COc1ccc(C(=O)NCC(=O)O)cc1	14%
CCc1ccccc1NC(=O)CSc1ncn[nH]1	25µM*
CCC1Oc2ccc(C)cc2N(CC(=O)N(Cc2cccnc2)Cc2ccc(C)o2)C1=O (stereo unspecified)	-6%
Cc1ccc(Cl)cc1NC(=O)COC(=O)C1CCCC1	4%
Cc1csc2ncc(C(=O)Nc3ccon3)c(=O)n12	3.2µM*
CCOC(=O)Nc1ccc2c(CN3C(=O)NC4(CCCC4)C3=O)cc(=O)oc2c1	25µM*
Cc1cc(C)c(NC(=O)NC(=O)c2cccc(F)c2)c(C)n1	14%
COC1=CC(=O)OC12CCCCC2	4%
COc1ccc(NC(=O)CSc2nnc(-c3cccnc3)n2Cc2ccco2)c(OC)c1	-9%
COc1ccc(C(C(=O)NC2CCCC2)N(C(=O)c2ccco2)c2ccc3c(c2)OCO3)cc1OC (stereo unspecified)	0%
O=C(CSc1nnc(-c2ccco2)n1CC1CCCO1)c1ccc(F)cc1 (stereo unspecified)	-14%
CCOC(=O)N1CCC(Nc2ccc3nnc(-c4ccccc4)n3n2)CC1	?
COC(=O)[C@@]1(Cc2ccc(OC)cc2)[C@H]2c3cc(C(=O)N(C)C)n(Cc4cc(F)c(F)c(F)c4)c3C[C@H]2CN1C(=O)c1ccccc1	12%
O=C(Cn1cccc1C(=O)c1ccccc1)NCCCN1CCOCC1	2%

(cont.)
SMILES	HSD17B inhib
CCOC(=O)c1cn(-c2ccccc2)nc1-c1ccncc1	-15%
NCOC(=O)Cc1ccc(Br)cc1	7%[11.4 µM]
Cc1ccccc1C(=O)c1cccn1CC(=O)N1CCCCCC1	-4%
O=C(C1CCCC1)N(c1ccccc1)C1C=CS(=O)(=O)C1 (stereo unspecified)	-7%
COc1ccc(CCC(=O)NCc2cn3ccsc3n2)cc1	1%
[N-]=[N+]=CC(=O)CC(c1ccccc1)N1C(=O)c2ccccc2C1=O (stereo unspecified)	-5%
COc1ccc(OC)c(C(c2nnnn2C2CCCC2)N2CCN(c3ccc(F)cc3)CC2)c1 (stereo unspecified)	-3%
Nn1c(CN2CCCCC2)nc2ccccc2c1=O	-4%
Cc1ccc(/C(O)=C2/C(=O)C(=O)N(CCN3CCOCC3)C2c2ccccn2)cc1 (stereo unspecified)	-2%
CCOc1cc(-c2nc(-c3ccncc3)no2)cc(OCC)c1OCC	6%
N#Cc1c(NC(=O)CSc2ncn[nH]2)sc2c1CCCCC2	7%
O=C(O)C1CC=CCC1C(=O)Nc1cccc(Cl)c1 (stereo unspecified)	4%
CCCNC(=O)N1CCN(c2nc(C(C)C)c3c(c2C#N)CC(C)(C)OC3)CC1	?
CCOC(=O)c1nnc2ccnn2c1N	-4%
COc1cccc(-c2nc(CS(=O)CC(=O)O)c(C)o2)c1 (stereo unspecified)	-10%
CC[N+](CC)(CC)CC(=O)Nc1c(C)cccc1C	11%&3%
O=C(Cc1ccccc1)NCCn1ccc2ccccc21	?
COCCCNC(=O)Cn1nnc(-c2ccccc2NC(=O)c2ccc(F)cc2)n1	-3%
COc1cc(O)c(C(=O)/C=C/c2ccccc2)c(OC)c1	91%[activator]
O=c1c2ccccc2nc2c3ccccc3ncn12	25µM*
O=C(NCCN1CCOCC1)C1CCN(S(=O)(=O)N2CCCCC2)CC1	2%
CS(=O)(=O)c1ccc(CNC(=O)[C@H]2C[C@@H]2[C@H](NP(=O)(c2ccccc2)c2ccccc2)c2ccccc2)cc1	4%
CC(C)C(NC(=O)c1cccs1)c1nnc(SCC(=O)Nc2nccs2)n1C (stereo unspecified)	-4%
Cc1nc(NC(=O)CN2CCOCC2)sc1-c1ccccc1	1%
O=C(Nc1ccc(Cc2ccncc2)cc1)c1ccc(Br)o1	-1%

Further records follow:
SMILES	HSD17B inhib
CCc1[nH]nc2c1C1(C(=O)N(Cc3ccccc3)c3ccccc31)C(C#N)=C(N)O2 (stereo unspecified)	-19%
CCOc1ccc2[nH]c(=O)c(CN(Cc3ccco3)Cc3nnnn3Cc3ccccc3)cc2c1	32µM*
CCN1CCN(C(=O)C(C)N(c2ccc(C)cc2)S(C)(=O)=O)CC1 (stereo unspecified)	-6%
O=c1cc(CSc2nnnn2-c2ccccc2)nc2nc[nH]n12	3%
CCCn1c(SCC(=O)Nc2nc(C)cs2)nnc1-c1cccnc1	6%
CCOC(=O)CSc1nnc(CSc2nc3ccccc3c(=O)[nH]2)n1-c1ccccc1	5%
CCOC(=O)c1[nH]c(C)c(C(=O)NC2CCCCCC2)c1C	2%
Cc1ccc(N(CC(=O)Nc2ccc(S(=O)(=O)N3CCOCC3)cc2)S(C)(=O)=O)cc1C	-4%
O=C(NCc1cn2ccsc2n1)c1cccc(C(F)(F)F)c1	6%
COc1ccc(Cl)c(Cn2c(NCCCO)nc3c2c(=O)n(C)c(=O)n3C)c1	11%
Fc1ccc(-c2cc3nc(-c4ccccc4)cc(N4CCOCC4)n3n2)cc1	13µM*
Cc1cc(C)c2nc(C(F)(F)F)nc(N3CC(C)OC(C)C3)c2c1 (stereo unspecified)	?
O=C(Nc1ccccc1N1CCN(c2ccc(F)cc2)CC1)c1ccccc1	37%[activator]
O=c1cc(O)nc(SC23CC4CC(CC(C4)C2)C3)[nH]1	?
CCN(CC)Cc1c[nH]c2c(C(=O)OC)cccc12	32µM*
O=C(O)c1cccnc1-c1ncccc1C(=O)O	16%
NC(=O)C1CC(O)CN1c1nc(CN2CCOCC2)nc2scc(-c3ccccc3)c12 (stereo unspecified)	13%
COc1cc(C(=O)Nc2ccc(OCC(=O)O)cc2)cc(OC)c1OC	4%
Cc1ccc(CNC(=O)[C@H](C)[C@@H]2C[C@@]2(C)[C@@H](NC(=O)OCc2ccccc2)c2ccccc2)c(F)c1F	6%
Cc1cc(NC(=O)COc2ccc(N(C)S(=O)(=O)c3ccccc3)cc2)no1	0%
O=C(NC1CCCCC1)C(c1ccccc1)N1CCOCC1 (stereo unspecified)	3%
COc1ccc(NC(=O)c2cc(C(C)C)on2)c(OC)c1	9%
CN1C(=O)CC(N2CCC(C(N)=O)(N3CCCCC3)CC2)C1=O (stereo unspecified)	9%
Cc1ccc(Cn2ccc(NC(=O)c3cc(C(C)C)on3)n2)cc1	-4%
Cc1ccccc1-c1nnc(SCC(=O)Nc2cccc(C)c2C)o1	-3%

Filtered by structure: those above with bromine
SMILES	HSD17B inhib
Oc1c(CN2CCN(c3ccccc3)CC2)cc(Br)c2cccnc12	-1%[11.4 µM]
NCOC(=O)Cc1ccc(Br)cc1	7%[11.4 µM]
O=C(Nc1ccc(Cc2ccncc2)cc1)c1ccc(Br)o1	-1%

Going on with the list.
SMILES	HSD17B inhib
Cc1cc(C(F)(F)F)nc(SCC(=O)NC2CC3CCC2C3)n1 (stereo unspecified)	5%
Cc1cc(C)cc(N(CC(=O)Nc2c(C)n(C)n(-c3ccccc3)c2=O)S(C)(=O)=O)c1	3%
CCC1Oc2ccc(C)cc2N(CC(=O)NCc2ccccc2OC)C1=O (stereo unspecified)	13%
Cc1cc(C)c(NC(=O)Cn2cc3c(n2)CCCC3)c(C)c1	4%
COc1cccc(-c2nc(C(N)=O)c3[nH]c(=O)n(-c4cccc(Cl)c4)c3n2)c1OC	?
Cc1ccc(C)c(/C(O)=C2\C(=O)C(=O)N(CCCn3ccnc3)C2c2ccncc2)c1 (stereo unspecified)	2%
CCCCNC(=O)CC1Nc2ccccc2NC1=O (stereo unspecified)	?
CCCOc1ccc(S(=O)(=O)NCCN2CCOCC2)c2ccccc12	-6%
O=C(Nc1ccccc1Cl)c1c(F)c(F)c(F)c(F)c1F	3%
Cc1ccsc1CNn1cnnc1SCc1ccccc1F	-15%
Cn1c2ccccc2c2nnc(SC3CCOC3=O)nc21 (stereo unspecified)	2%
Cc1oc2ccc(O)c(CN3CCOCC3)c2c1C(=O)c1ccc(Cl)cc1	-16%
O=c1cc(NCC2CCCO2)[nH]c(=O)n1-c1ccc(Cl)cc1 (stereo unspecified)	16%
CCCS(=O)(=O)N1CCC(C(=O)N2CCOCC2)CC1	0%
Cc1ccccc1Cn1cc(NC(=O)c2cc3nc(-c4ccco4)cc(C(F)(F)F)n3n2)cn1	-194%
O=C(CSc1nnc(-c2cccs2)o1)NCC1CN(Cc2ccccc2)CCO1 (stereo unspecified)	-4%
CCS(=O)(=O)N1CCN(Cc2ccncc2)CC1	9%
C=CCn1c(SCC(=O)c2ccc(OC)cc2)nnc1-c1cc2cccc(OC)c2o1	11%
CCCc1cc(=O)[nH]c(SCC(N)=O)n1	6%
C[N+](C)(C)c1nc(N)nc2c1ncn2[C@H]1O[C@@H](CO)[C@@H](O)[C@H]1O	6%[11.4 µM]
CCN(CC)S(=O)(=O)c1cccc(C(=O)OCC(=O)N2CC(=O)Nc3ccccc32)c1	2%
CN(C)S(=O)(=O)N(CC(=O)N1CCOCC1)c1ccccc1	1%
Cc1cccc2cc(C#N)c(NCCNC(=O)NC3CCCCC3)nc12	13µM*
COc1cccc(NC(=O)CSCc2n[nH]c(=O)[nH]2)c1	15%
COc1cccc(C2=CC(c3ccc(OC)c(OC)c3OC)n3nnnc3N2)c1 (stereo unspecified)	-6%
CCC(C)NC(=O)CS(=O)Cc1nc(-c2ccccc2C)oc1C (stereo unspecified)	-9%
COCCCNc1nc2c(c(=O)[nH]c(=O)n2C)n1CCCc1ccccc1	2%
CCCCN(C)C(=O)CCC(=O)Nc1ccc2nc(N3CCOCC3)cc(C)c2c1	25µM*
CC(C)[C@H](NC(=O)NCc1cccs1)C(=O)O	0%
O=C(COc1ccccc1O)c1cccs1	-30%

Quoted at random: five entries already listed.
SMILES	HSD17B inhib
CN(C)S(=O)(=O)N(CC(=O)N1CCOCC1)c1ccccc1	1%
CCS(=O)(=O)N1CCN(Cc2ccncc2)CC1	9%
CCCCN(C)C(=O)CCC(=O)Nc1ccc2nc(N3CCOCC3)cc(C)c2c1	25µM*
CC(C)[C@H](NC(=O)NCc1cccs1)C(=O)O	0%
Cc1cc(C)cc(N(CC(=O)Nc2c(C)n(C)n(-c3ccccc3)c2=O)S(C)(=O)=O)c1	3%
